Screens as filed in PubChem.
rRNA inh HTS = inhibits bacterial ribosomal RNA function over humanized ribosomes. E. coli WT GFP vs humanized-ribosome RFP mutants, fluorescence, 24 h; active compounds read low; DMSO median 0, no signal -100. GFP signal change (wild-type ribosome), % (test concentration not listed). hit rate 1.6% among 350,000. AID 720706;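 active means significant combined selectivity score with lowered wild-type GFP, culture density cut under 30%, mutant RFP and density less affected; inactive means any of these conditions unmet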; further: one replicate is shown; some compounds called inactive have numbers as strong as hits
AF4-AF9 inh = inhibitors of human MLL-AF4/AF9 interaction. P42568. AlphaScreen, biotin-AF4 peptide binding to FLAG-AF9. inhibition, % at 10 µM. hit rate 0.47% among 350,000;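 active means every replicate reaching a set inhibition limit, whatever the replicate mean, cut at about 25% in these data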;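 further: 0% = plate neutral control median and 100% = total signal loss; the record names both 10 and 1 µM as test concentration; the first replicate is given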
Target sequence (P42568 whole entry, looked up): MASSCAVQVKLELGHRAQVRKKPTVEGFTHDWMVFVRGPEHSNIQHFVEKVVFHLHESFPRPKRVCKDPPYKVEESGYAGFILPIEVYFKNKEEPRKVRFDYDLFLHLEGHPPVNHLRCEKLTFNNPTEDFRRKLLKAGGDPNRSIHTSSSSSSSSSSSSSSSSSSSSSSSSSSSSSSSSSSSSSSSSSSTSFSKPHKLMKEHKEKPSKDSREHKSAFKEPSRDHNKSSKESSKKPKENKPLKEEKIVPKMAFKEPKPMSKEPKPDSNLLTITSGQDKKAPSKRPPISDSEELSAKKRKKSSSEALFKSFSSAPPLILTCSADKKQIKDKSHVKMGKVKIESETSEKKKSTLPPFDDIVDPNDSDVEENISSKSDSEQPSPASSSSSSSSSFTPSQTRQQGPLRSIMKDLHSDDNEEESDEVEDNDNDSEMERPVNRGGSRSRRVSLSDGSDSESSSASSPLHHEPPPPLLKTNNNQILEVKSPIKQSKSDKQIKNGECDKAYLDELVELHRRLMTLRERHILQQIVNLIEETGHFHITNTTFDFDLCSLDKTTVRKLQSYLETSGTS
rRNA inh HTS OD600 = also measured in rRNA inh HTS; calls as there; OD600 change, %; measured here: OD600 growth;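 optical density of the mix in the first replicate; 0 = DMSO median and -100 = no signal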
rRNA inh HTS RFP = also measured in rRNA inh HTS; calls as there; RFP signal change, %; measured here: RFP humanized mutant strains;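 first replicate; 0 = DMSO median and -100 = no signal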
* = called active by the depositor; & = joins results of further samples. Only part of the results is shown; count on the stated rates, not on these rows.

nr	smiles	rRNA inh HTS OD600	AF4-AF9 inh	rRNA inh HTS RFP	rRNA inh HTS
1	Cc1noc(C)c1NC(=O)N(C)C[C@@H]1Oc2ccc(NC(=O)Nc3ccccc3)cc2C(=O)N([C@@H](C)CO)C[C@H]1C	3	0.1	4.6	6
2	O=CNc1cc(-c2cccc(F)c2)cn2c(-c3ccc(F)c(Cl)c3)cnc12	-1	-3.1	4.0	1
3	C[C@@H](O)C#Cc1ccc([C@@H]2[C@@H](CO)N3CCCCN(S(=O)(=O)c4ccccc4)C[C@@H]23)cc1	12	-2.8	1.5	2
4	CCCNC(=O)N(C)C[C@H]1Oc2cc(C3=CCCC3)ccc2S(=O)(=O)N([C@H](C)CO)C[C@H]1C	-9	-3.4	-3.4	-7
5	CN(C)C(=O)c1cccc(-c2ccc([C@@H]3[C@@H](CO)N4CCCCN(C(=O)C5CCC5)C[C@@H]34)cc2)c1	3	-4.1	-1.3	3
6	COc1cccc(S(=O)(=O)Nc2ccc3c(c2)[C@H]2C[C@H](CC(=O)N4CCCCC4)O[C@H](CO)[C@H]2O3)c1	-8	-1.9	-0.8	-7
7	Cc1noc(C)c1S(=O)(=O)Nc1ccc2c(c1)C(=O)N([C@@H](C)CO)C[C@H](C)[C@@H](CN(C)Cc1ccc(Oc3ccccc3)cc1)O2	2	4.6	2.2	1
8	Cc1noc(C)c1NC(=O)Nc1ccc2c(c1)C(=O)N([C@@H](C)CO)C[C@H](C)[C@@H](CN(C)S(C)(=O)=O)OCCCC[C@@H](C)O2	2	-3.3	-4.1	0
9	O=C(c1cccc(Cl)c1)N1CCN(c2ccc3c(c2)C2CC3CCN2C(=O)OCc2ccccc2)CC1 (configuration not stated)	22	4.9	56	18
10	CCN(CC)C(=O)C1CCCN(Cc2cccc(Cl)c2)C1 (configuration not stated)	10	2.4	0.6	5
11	CC(C)CC#Cc1cnc2c(c1)C(=O)N([C@H](C)CO)C[C@H](C)[C@H](CN(C)C(=O)CCN1CCCCC1)O2	13	3.8	0.1	4
12	Cc1cccc(S(=O)(=O)N2C[C@@H](O)COC[C@H]3O[C@H](CC(=O)N4CCN(C)CC4)CC[C@@H]32)c1	8	-17	-1.1	0
13	CO[C@H]1CN(C)C(=O)c2cc(C#N)ccc2OC[C@@H]2O[C@H](CC[C@H]2OC)CCN(C)C(=O)[C@@H]1C	4	-7.5	-4.2	6
14	C[C@@H](NC(=O)[C@@H]1[C@@H](CO)[C@@H]2Cn3c(cccc3=O)[C@@H]2N1C(=O)C1CC1)c1ccccc1	5	-1.1	-0.4	-1
15	OC[C@H]1[C@H](c2ccc(C#Cc3ccccc3)cc2)[C@H]2CN(CC3CCOCC3)CCCCN21	-6	7.4	25	7
16	O=C(C[C@@H]1CC[C@@H]2[C@H](COC[C@H](O)CN2S(=O)(=O)c2ccccc2)O1)NCC1CCCCC1	-14	6.2	5.5	-3
17	O=C(C[C@@H]1CC[C@@H](NC(=O)NC2CCCC2)[C@H](CO)O1)NCc1ccc(F)cc1	3	-3.5	-1.5	2
18	N#CC1(Nc2ccc(-c3ccc(Cl)cc3)cc2)CCCC1	5	2.5	-4.9	-11
19	C[C@H](CO)N1C[C@H](C)[C@@H](CN(C)C(=O)CCCN(C)C)OCCCC[C@H](C)Oc2ccc(NC(=O)c3ccccc3)cc2C1=O	2	-1.6	0.2	-2
20	C[C@@H]1CN([C@H](C)CO)C(=O)c2cccc(NC(=O)c3ccncc3)c2O[C@H]1CN(C)CC1CC1	6	2.7	-2.3	0
21	COc1cc(CNC(=O)c2cnccn2)cc(OC)c1	10	0.0	2.4	11
22	COc1cccc(C(=O)N2C[C@@H]3[C@H](c4ccccc42)[C@H](CO)N3C(=O)c2cccc(F)c2)c1	-5	-2.5	1.4	-2
23	COc1ccccc1NC(=O)N[C@H]1CC[C@H](CC(=O)NCc2ccc(Cl)c(Cl)c2)O[C@@H]1CO	2	1.5	-0.5	0
24	CCNC(=O)[C@@H]1[C@@H](CO)[C@@H]2Cn3c(ccc(-c4ccccc4F)c3=O)[C@H]1N2CC1CC1	-6	-0.2	-1.1	-1
25	COCC(=O)N1CC2(C1)[C@@H](c1ccc(C3=CCCC3)cc1)[C@H](CO)N2C(=O)COC	11	-3.1	-0.8	1

Given with the structure last: part of the list above
no.	rRNA inh HTS OD600	AF4-AF9 inh	rRNA inh HTS RFP	rRNA inh HTS	SMILES
8	2	-3.3	-4.1	0	Cc1noc(C)c1NC(=O)Nc1ccc2c(c1)C(=O)N([C@@H](C)CO)C[C@H](C)[C@@H](CN(C)S(C)(=O)=O)OCCCC[C@@H](C)O2
9	22	4.9	56	18	O=C(c1cccc(Cl)c1)N1CCN(c2ccc3c(c2)C2CC3CCN2C(=O)OCc2ccccc2)CC1 (configuration not stated)
10	10	2.4	0.6	5	CCN(CC)C(=O)C1CCCN(Cc2cccc(Cl)c2)C1 (configuration not stated)
11	13	3.8	0.1	4	CC(C)CC#Cc1cnc2c(c1)C(=O)N([C@H](C)CO)C[C@H](C)[C@H](CN(C)C(=O)CCN1CCCCC1)O2
12	8	-17	-1.1	0	Cc1cccc(S(=O)(=O)N2C[C@@H](O)COC[C@H]3O[C@H](CC(=O)N4CCN(C)CC4)CC[C@@H]32)c1
13	4	-7.5	-4.2	6	CO[C@H]1CN(C)C(=O)c2cc(C#N)ccc2OC[C@@H]2O[C@H](CC[C@H]2OC)CCN(C)C(=O)[C@@H]1C
14	5	-1.1	-0.4	-1	C[C@@H](NC(=O)[C@@H]1[C@@H](CO)[C@@H]2Cn3c(cccc3=O)[C@@H]2N1C(=O)C1CC1)c1ccccc1
15	-6	7.4	25	7	OC[C@H]1[C@H](c2ccc(C#Cc3ccccc3)cc2)[C@H]2CN(CC3CCOCC3)CCCCN21
16	-14	6.2	5.5	-3	O=C(C[C@@H]1CC[C@@H]2[C@H](COC[C@H](O)CN2S(=O)(=O)c2ccccc2)O1)NCC1CCCCC1

The listing continues:
nr	smiles	rRNA inh HTS OD600	AF4-AF9 inh	rRNA inh HTS RFP	rRNA inh HTS
26	COCC#Cc1ccc([C@@H]2[C@H](C#N)N(C(=O)Cc3ccccc3)[C@H]2CO)cc1	-7	-0.2	-1.9	-2
27	C[C@H]1CN([C@@H](C)CO)C(=O)c2cccc(NS(=O)(=O)c3cccs3)c2O[C@H]1CN(C)Cc1ccc2c(c1)OCO2	3	-1.2	-0.7	1
28	COc1ccc(NC(=O)c2cnc3ccccn3c2=O)c(OC)c1	10	-2.6	0.3	8
29	CC1(C(=O)NCC2CCCCC2)CCN1CCc1ccccc1 (configuration not stated)	-60	0.2	-14	-39
30	CNC[C@@H]1Oc2c(NS(=O)(=O)c3ccc(F)cc3)cccc2C(=O)N([C@@H](C)CO)C[C@@H]1C	2	-0.2	0.0	0
31	CO[C@H]1CN(C)C(=O)c2ccc(NC(=O)C3CC3)cc2OC[C@@H](C)N(Cc2ccncc2)C[C@H]1C	-3	-2.3	-2.1	-3
32	O=S(=O)(N[C@@H]1CC[C@@H](CCn2cc(-c3ccccc3F)nn2)O[C@@H]1CO)c1ccc(F)cc1	-3	-21	-0.3	-3
33	C[C@H]1CN([C@@H](C)CO)S(=O)(=O)c2ccc(C#CC3CC3)cc2O[C@@H]1CN(C)C(=O)C1CC1	-3	0.5	0.5	-2
34	CCNC(=O)C[C@@H]1CC[C@H]2[C@@H](COc3ccc(NC(=O)Nc4c(C)noc4C)cc3C(=O)N2C)O1	6	-1.6	-2.2	-2
35	CN(C)C(=O)C[C@@H]1C[C@H]2c3cc(NC(=O)c4ccc5c(c4)OCO5)ccc3O[C@H]2[C@H](CO)O1	-2	-1.1	-1.0	-3
36	CN(C)C(=O)c1cccc(-c2ccc([C@@H]3[C@H](CO)N4C(=O)CN(C(=O)C5CC5)C[C@@H]34)cc2)c1	17	-4.5	1.0	5
37	CN(C)CC(=O)N1[C@H](C(=O)NC2CCC2)[C@@H](CO)[C@@H]2Cn3c(ccc(-c4ccc(F)cc4)c3=O)[C@@H]21	11	-14	-3.5	1
38	CCCC(=O)Nc1ccc2c(c1)OC[C@H](C)N(Cc1cncnc1)C[C@@H](C)[C@H](OC)CN(C)C2=O	-8	-1.7	-0.3	-4
39	CC(=O)N[C@H]1CC[C@@H](CCNC(=O)C2CCCC2)O[C@H]1CO	1	1.4	-3.0	1
40	Cc1ccccc1-c1ccc([C@@H]2[C@H](CO)N3C(=O)CN(C(=O)NC4CCCC4)C[C@@H]23)cc1	-17	-1.3	-1.5	-3
41	CCCN(C)C[C@H]1Oc2cc(-c3cccnc3)ccc2S(=O)(=O)N([C@@H](C)CO)C[C@H]1C	-2	-0.5	-2.3	2
42	CCc1nc(N2[C@H](C#N)[C@@H](c3ccccc3-c3ccccc3F)[C@@H]2CO)sc1C	-9	-0.4	-1.1	-2
43	COc1ccc(NC(=O)Nc2ccc3c(c2)C(=O)N([C@H](C)CO)C[C@@H](C)[C@H](CN(C)C(=O)Nc2ccccc2)O3)cc1	3	-13	-2.3	-2
44	CCCNC(=O)Nc1ccc2c(c1)OC[C@H](C)N(Cc1ccc(-c3ccccn3)cc1)C[C@@H](C)[C@@H](OC)CN(C)C2=O	-10	6.1	1.3	0
45	C[C@H](CO)N1C[C@H](C)[C@H](CN(C)Cc2ccc3c(c2)OCO3)OCCCC[C@H](C)Oc2ccc(NC(=O)C3CCCCC3)cc2C1=O	-10	1.9	4.3	-4
46	COc1ccc2c3c([nH]c2c1)[C@H](CO)N(C(=O)C1CCC1)CC31CN(C(=O)c2ccccn2)C1	15	0.7	-0.7	-1
47	CSc1ccc(NC(=O)C2(C)CCN2C(=O)c2ccccc2CCc2ccccc2)cc1 (configuration not stated)	6	-2.7	-3.9	5
48	C[C@@H]1CN([C@@H](C)CO)C(=O)c2cc(C3=CCCCC3)cnc2O[C@@H]1CN(C)Cc1cccnc1	2	-1.7	1.6	4
49	C[C@H](O)C#Cc1ccc([C@@H]2[C@H](CO)N3CCCCN(CC4CCOCC4)C[C@@H]23)cc1	9	5.3	4.1	6
50	CC(C)CC#Cc1ccc([C@H]2[C@H](CO)N3C(=O)CN(C(=O)c4ccc5c(c4)OCO5)C[C@@H]23)cc1	-40	-0.7	28	-4
51	CC(C)CC#Cc1ccc([C@@H]2[C@@H](CO)N3CCCCN(C(=O)c4ccc5c(c4)OCO5)C[C@H]23)cc1	-73	11	-12	-53
52	CCCN(C)C[C@H]1Oc2cc(C#Cc3ccccc3F)ccc2S(=O)(=O)N([C@@H](C)CO)C[C@H]1C	-2	4.4	3.5	-2
53	CC(=O)N(C)C[C@H]1Oc2cc(C#CC3(O)CCCC3)ccc2S(=O)(=O)N([C@@H](C)CO)C[C@H]1C	-6	-2.4	-2.6	-1
54	CO[C@@H]1CN(C)C(=O)c2cc(NS(=O)(=O)CC(F)(F)F)ccc2OC[C@@H](C)N(CC2CCCCC2)C[C@H]1C	-4	-0.1	3.6	-4
55	COc1cccc(NC(=O)C2(C)CCN2C(C)C)c1OC (configuration not stated)	13	-3.0	-1.0	9
56	COc1ccccc1-c1cnc2c(c1)C(=O)N([C@H](C)CO)C[C@H](C)[C@@H](CN(C)CC1CCCC1)O2	2	0.0	-2.3	-2
57	Cc1cccc(S(=O)(=O)N2C[C@@H]3[C@H](c4ccccc42)[C@H](CO)N3Cc2ccccn2)c1	-9	-6.5	3.8	-3
58	C[C@H](CO)N1C[C@H](C)[C@@H](CN(C)S(=O)(=O)c2ccc(F)cc2)Oc2c(NS(=O)(=O)c3cccs3)cccc2C1=O	3	-0.8	-1.4	1
59	CCCC(=O)Nc1ccc2c(c1)OC[C@@H](C)N(C(=O)Cc1ccccn1)C[C@@H](C)[C@H](OC)CN(C)C2=O	-1	-0.7	-0.7	3
60	CCCCNC(=O)C1(C)CCCCN1C(=O)c1csnn1 (configuration not stated)	1	-5.8	3.5	5
61	COc1ccc(NC(=O)N2CC(=O)N3[C@H](CO)[C@H](c4ccc(/C=C/c5ccccc5)cc4)[C@H]3C2)cc1	3	3.8	-1.6	-1
62	C[C@H](CO)N1C[C@H](C)[C@@H](CN(C)Cc2ccc(C(=O)Nc3ccccc3N)cc2)Oc2ccc(NC(=O)C3CC3)cc2C1=O	-5	-0.8	-1.2	1
63	C[C@H]1CN([C@@H](C)CO)C(=O)c2cc(Br)cnc2O[C@H]1CN(C)S(=O)(=O)c1cccs1	6&14	-2.1&-5.2	-1.9&-3.2	4&3
64	C[C@@H]1CN([C@@H](C)CO)C(=O)c2cc(NC(=O)CCCN(C)C)ccc2O[C@@H](C)CCCCO[C@@H]1CN(C)Cc1ccc2c(c1)OCO2	-2	2.3	-1.1	3
65	C[C@@H]1CN([C@H](C)CO)C(=O)c2cc(-c3cccc(F)c3)cnc2O[C@H]1CN(C)S(C)(=O)=O	1	1.0	-3.6	-1
66	COc1ccccc1C(=O)N1C[C@@H]2[C@H](c3ccccc31)[C@H](CO)N2C(=O)C1CCOCC1	-2	-0.5	-4.3	3
67	CN(C)c1ccc(CNC(=O)C2(C)Cc3c(-c4ccccc4)ccnc3O2)cc1 (configuration not stated)	0	15	-1.1	-2
68	CO[C@@H]1CN(C)C(=O)c2ccc(NC(=O)Nc3ccc(Cl)cc3)cc2OC[C@@H](C)N(C(=O)Nc2c(C)noc2C)C[C@@H]1C	-3	3.4	4.4	-5
